# NOMO-1 viab: STK33 inhibitor candidate reducing NOMO-1 cell viability. actives 7.5% (n = 37,000). NOMO-1 AML viability, CellTiter-Glo luminescence, 72 h. inhibition, % (test concentration not listed);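 active means most replicates above 80%; inconclusive means exactly half above 80%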;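 further: wells of about 30 µL received 25 nL stock; 0% = median of vehicle wells and 100% = reference inhibitor level; the first replicate is given; inactives centre near 10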
# * hit, by the source's call; ? = inconclusive. An excerpt; rates above refer to the full screens.
SMILES,NOMO-1 viab
C[C@@H]1CN([C@H](C)CO)C(=O)c2cccc(NC(=O)Nc3ccc(C(F)(F)F)cc3)c2O[C@H]1CN(C)C,?
C[C@H]1CN([C@@H](C)CO)C(=O)c2cccc(NS(=O)(=O)c3cccs3)c2O[C@H]1CN(C)CC1CCCCC1,27
C[C@@H]1CN([C@H](C)CO)C(=O)c2cc(NC(=O)NC3CCCCC3)ccc2O[C@@H]1CN(C)C(=O)Nc1ccc(F)cc1,5
C[C@H]1CN([C@@H](C)CO)C(=O)Cc2cc(NS(=O)(=O)c3ccccc3)ccc2O[C@H]1CN(C)S(=O)(=O)c1cccs1,12
C[C@H](CO)N1C[C@H](C)[C@@H](CN(C)S(=O)(=O)c2ccc(F)cc2)Oc2ccc(NC(=O)Nc3ccc(F)cc3)cc2C1=O,11
C[C@H](CO)N1C[C@H](C)[C@@H](CN(C)Cc2ccc3c(c2)OCO3)Oc2ccc(NS(=O)(=O)c3ccc(F)cc3)cc2C1=O,31
C[C@@H]1CN([C@H](C)CO)C(=O)c2cccc(NC(=O)C3CCOCC3)c2O[C@@H]1CN(C)C(=O)Nc1ccc(C(F)(F)F)cc1,11
C[C@@H]1CN([C@@H](C)CO)C(=O)Cc2cc(NC(=O)Nc3ccc4c(c3)OCO4)ccc2O[C@@H]1CN(C)C(=O)Nc1ccccc1,9
CC(C)c1ccc(Nc2nnns2)cc1,46
C[C@@H]1CN([C@H](C)CO)C(=O)c2cc(NC(=O)CCCCCC(=O)Nc3ccccc3N)ccc2O[C@H]1CN(C)S(=O)(=O)c1ccc(Cl)cc1,16
C[C@@H]1CN([C@@H](C)CO)C(=O)c2cccc(NC(=O)c3nc4ccccc4s3)c2O[C@@H]1CN(C)Cc1ccc(Oc2ccccc2)cc1,69
COc1ccc(S(=O)(=O)N(C)CC(=O)Nc2cc([N+](=O)[O-])ccc2C)cc1,20
C[C@H]1CN([C@@H](C)CO)C(=O)Cc2cc(N(C)C)ccc2O[C@H]1CN(C)S(=O)(=O)c1cn(C)cn1,12
COc1ccc(C(=O)CSc2nnc(-c3ccc([N+](=O)[O-])cc3)o2)cc1,-9
N#Cc1c(NC(=O)COc2ccc(C(=O)Nc3cc(Cl)ccc3Cl)cc2)sc2c1CCC2,32
COC(=O)c1ccc(Cl)c(NC(=O)CSc2nc3c(c(C(F)(F)F)n2)CCCC3)c1,-9
C[C@@H]1CN([C@@H](C)CO)C(=O)Cc2cc(NC(=O)c3ccncc3)ccc2O[C@@H]1CN(C)C(=O)Nc1ccc(C(F)(F)F)cc1,-13
CC(=O)O[C@@H]1[C@@H](O)C[C@@]2(C)C(CC[C@@H](C)C23Cc2c(O)cc4c(c2O3)CN([C@@H](CCC(=O)O)C(=O)O)C4=O)C1(C)C (some centres undefined),15
Cc1nc2ccccc2nc1CSc1nc2ccccc2s1,7
CCOC(=O)COc1c(C#N)sc2c1c(=O)n(-c1ccccc1)c(=S)n2-c1ccccc1,112*
COc1ccc(NC(=O)N(C)C[C@@H]2Oc3ccc(NC(=O)Cc4cn(C)c5ccccc45)cc3CC(=O)N([C@H](C)CO)C[C@@H]2C)cc1,14
C(=N/n1cnnc1)/c1cccc2c1OCCCO2,12
CC(C)Nc1nc(-c2cccs2)cc(C(F)(F)F)c1C#N,32
Cc1cc(C)n2nc(NCc3cccc([N+](=O)[O-])c3)nc2n1,9
COC(=O)c1ccccc1NC(=O)c1ccc(NC(=O)CSc2ccc(C)cc2)cc1,12

# Reprinted from the part before: three entries, followed by the next part.
SMILES,NOMO-1 viab
CC(C)Nc1nc(-c2cccs2)cc(C(F)(F)F)c1C#N,32
Cc1cc(C)n2nc(NCc3cccc([N+](=O)[O-])c3)nc2n1,9
COC(=O)c1ccccc1NC(=O)c1ccc(NC(=O)CSc2ccc(C)cc2)cc1,12
C[C@@H]1CCCCO[C@@H](CN(C)C)[C@@H](C)CN([C@H](C)CO)C(=O)c2cc(N(C)C)ccc2O1,-8
Cc1nc(SCC(=O)Nc2ccc(Br)cc2)n[nH]1,20
C[C@@H]1CN([C@H](C)CO)C(=O)c2cc(NS(=O)(=O)c3cn(C)cn3)ccc2O[C@H]1CN(C)Cc1ccc(C(F)(F)F)cc1,5
Cc1cc(C(F)(F)F)nc(SCC(=O)Nc2sc3c(c2C#N)CCCC3)n1,7
O=c1[nH]c(CSc2nnc(-c3cccnc3)n2C2CCCCC2)nc2ccccc12,30
C[C@H](CO)N1C[C@H](C)[C@H](CN(C)Cc2ccc(Cl)c(Cl)c2)Oc2ccc(NC(=O)c3ccncc3)cc2C1=O,22
C[C@H](CO)N1C[C@H](C)[C@H](CN(C)Cc2ccc(C(F)(F)F)cc2)Oc2ccc(NC(=O)c3ccncc3)cc2C1=O,8
C[C@@H]1CN([C@H](C)CO)C(=O)Cc2cc(NC(=O)Nc3cccc4ccccc34)ccc2O[C@@H]1CN(C)S(=O)(=O)c1ccc(Cl)cc1,19
CC(=O)c1cccc(NC(=O)C(C)N2C(=O)C3C4C=CC(C5CC45)C3C2=O)c1 (centres undefined),32
COc1ccc(OC)c(C2C(C(=O)c3cccs3)C(=O)C(=O)N2Cc2cccnc2)c1 (centres undefined),17
COc1ccc(-c2c(C#N)c(SCC(=O)Nc3cccc(F)c3)nc3c2CCC3)cc1,23
COc1ccc(S(=O)(=O)Nc2cccc3c2O[C@H](CN(C)Cc2ccc(C(=O)Nc4ccccc4N)cc2)[C@H](C)CN([C@H](C)CO)C3=O)cc1,128*
Cc1ccc(S(=O)(=O)Nc2ccc3c(c2)C(=O)N([C@H](C)CO)C[C@@H](C)[C@@H](CN(C)Cc2ccc(C(=O)O)cc2)O3)cc1,1
CC(C)NC(=O)Nc1ccc2c(c1)CC(=O)N([C@@H](C)CO)C[C@H](C)[C@@H](CN(C)CC1CC1)O2,-9
C[C@@H]1CN([C@H](C)CO)C(=O)Cc2cc(NS(=O)(=O)c3ccc(Cl)cc3)ccc2O[C@@H]1CN(C)Cc1ccc(C(=O)O)cc1,-10
CC(C)NC(=O)Nc1cccc2c1O[C@H](CN(C)CC1CC1)[C@@H](C)CN([C@H](C)CO)C2=O,31
C[C@H]1CN([C@@H](C)CO)C(=O)c2cc(NS(=O)(=O)c3ccc(F)cc3)ccc2O[C@@H]1CN(C)S(=O)(=O)c1ccc(Cl)cc1,34
C[C@@H]1CN([C@@H](C)CO)C(=O)c2cccc(NC(=O)c3cnccn3)c2O[C@H]1CN(C)Cc1ccc(C(=O)O)cc1,-16
O=C1NC(=O)c2cc(-c3ccccc3)ccc21,-13
COc1ccc(S(=O)(=O)Nc2cccc3c2O[C@@H](CN(C)S(=O)(=O)c2ccc(C)cc2)[C@@H](C)CN([C@@H](C)CO)C3=O)cc1,16
Cc1nc(SCC(=O)Nc2ccc(Oc3ccccc3)cc2)n[nH]1,24
CC(Oc1ccc(Cl)cc1Cl)C(=O)Nc1ccccc1C(=O)NC1CCCCC1 (centres undefined),12
CNC[C@@H]1OCCCC[C@@H](C)Oc2ccc(NC(=O)C3CCCCC3)cc2C(=O)N([C@H](C)CO)C[C@@H]1C,9
Cc1noc(C)c1NC(=O)Nc1ccc2c(c1)C(=O)N([C@@H](C)CO)C[C@@H](C)[C@H](CN(C)S(=O)(=O)c1cccs1)O2,-3
Cc1noc(C)c1S(=O)(=O)Nc1ccc2c(c1)C(=O)N([C@@H](C)CO)C[C@H](C)[C@@H](CN(C)S(C)(=O)=O)O2,-6

# Additional results.
SMILES,NOMO-1 viab
C[C@H]1CN([C@@H](C)CO)C(=O)Cc2cc(NC(=O)Cn3cnnn3)ccc2O[C@@H]1CN(C)S(=O)(=O)c1ccccc1,13
C[C@@H]1CN([C@@H](C)CO)C(=O)Cc2cc(NS(=O)(=O)c3ccc(F)cc3)ccc2O[C@@H]1CN(C)Cc1ccc(C(=O)O)cc1,6
CCn1c2ccccc2c2cc(NC(=O)CSc3nnnn3-c3ccccc3)ccc21,4
Cc1ccc(NC(=O)CSCc2n[nH]c(=O)[nH]2)c(Br)c1,2
CC1CCC2(C)C(CC(O)C(O)C2(O)CO)C1(C)CCc1ccoc1 (centres undefined),17
Cc1noc(C)c1NC(=O)N(C)C[C@@H]1OCCCC[C@@H](C)Oc2ccc(NC(=O)c3ccccc3)cc2C(=O)N([C@H](C)CO)C[C@@H]1C,26
COC(=O)c1ccccc1NC(=O)CSc1n[nH]c(C)n1,11
C[C@@H]1CN([C@@H](C)CO)C(=O)c2cccc(NS(=O)(=O)c3ccc(Cl)cc3)c2O[C@H]1CN(C)S(=O)(=O)c1cn(C)cn1,5
Cc1ccc(NC(=O)COc2ccccc2Cl)c([N+](=O)[O-])c1,17
CS/C(NCC1CC1)=C(/C#N)C(=O)c1ccc(Cl)cc1,111*
C[C@@H]1CN([C@@H](C)CO)C(=O)c2cc(NC(=O)CCCN(C)C)ccc2O[C@H]1CN(C)Cc1ccc(Cl)c(Cl)c1,12
Cc1noc(C)c1NC(=O)Nc1ccc2c(c1)C(=O)N([C@@H](C)CO)C[C@@H](C)[C@@H](CN(C)Cc1ccccc1)O2,6
CC(C)NC(=O)N(C)C[C@@H]1Oc2ccc(NC(=O)C3CC3)cc2C(=O)N([C@H](C)CO)C[C@H]1C,-8
Cc1ccc(NC(=O)CN(c2cccc(F)c2)S(C)(=O)=O)cc1Cl,15
Cc1noc(C)c1NC(=O)Nc1ccc2c(c1)C(=O)N([C@@H](C)CO)C[C@H](C)[C@H](CN(C)Cc1ccc(-c3ccccc3)cc1)O2,29
COc1ccc(Cl)cc1NC(=S)NCc1ccc(S(N)(=O)=O)cc1,9
O=S(=O)(N1CCOCC1)n1c(Cc2ccccc2)nc2ccccc21,-8
COc1ccc(S(=O)(=O)Nc2ccc3c(c2)C(=O)N([C@H](C)CO)C[C@H](C)[C@H](CN(C)S(=O)(=O)c2cn(C)cn2)OCCCC[C@@H](C)O3)cc1,8
C[C@H](CO)N1C[C@H](C)[C@H](CN(C)Cc2ccccc2)Oc2ccc(NC(=O)Nc3cccc4ccccc34)cc2CC1=O,18
C[C@H]1CN([C@@H](C)CO)C(=O)Cc2cc(NS(=O)(=O)c3cn(C)cn3)ccc2O[C@H]1CN(C)S(C)(=O)=O,-1
C[C@H]1CN([C@@H](C)CO)C(=O)c2cc(NS(=O)(=O)c3ccc(Cl)cc3)ccc2O[C@H]1CN(C)S(=O)(=O)c1ccc(F)cc1,9
C[C@@H]1CN([C@H](C)CO)C(=O)c2cc(NS(=O)(=O)c3cccs3)ccc2O[C@H]1CN(C)Cc1ccc(Cl)c(Cl)c1,1
C[C@@H]1CN([C@H](C)CO)C(=O)Cc2cc(NC(=O)Cc3ccccc3)ccc2O[C@H]1CN(C)Cc1ccc(C(=O)Nc2ccccc2N)cc1,28
Cc1cc(I)ccc1NC(=O)Cn1c([N+](=O)[O-])cnc1C,-2
Cc1noc(C)c1NC(=O)Nc1cccc2c1O[C@@H](CN(C)C(=O)Nc1c(C)noc1C)[C@@H](C)CN([C@H](C)CO)C2=O,-2

# (cont.)
SMILES,NOMO-1 viab
C[C@H]1CN([C@@H](C)CO)C(=O)c2cccc(NC(=O)Nc3ccccc3)c2O[C@H]1CN(C)C(=O)NC1CCCCC1,21
COc1ccc(S(=O)(=O)Nc2ccc3c(c2)C(=O)N([C@H](C)CO)C[C@H](C)[C@@H](CN(C)Cc2ccc4c(c2)OCO4)OCCCC[C@@H](C)O3)cc1,28
Cc1cc(N(CC(=O)Nc2ccc(F)cc2)S(C)(=O)=O)ccc1Br,37
Cc1cc(C)cc(-n2c(C)cc(/C=C3\SC(=O)NC3=O)c2C)c1,59
C[C@@H]1CN([C@@H](C)CO)C(=O)c2cc(NC(=O)Cc3cn(C)c4ccccc34)ccc2O[C@@H]1CN(C)Cc1ccc(C(=O)O)cc1,-3
CCOC(=O)c1ccc(NC(=O)C(C)Sc2nc3ccccc3[nH]2)cc1 (centres undefined),21
CNC[C@@H]1Oc2ccc(NC(=O)Nc3ccc(F)cc3)cc2CC(=O)N([C@@H](C)CO)C[C@@H]1C,-29
Cc1noc(C)c1S(=O)(=O)Nc1ccc2c(c1)C(=O)N([C@H](C)CO)C[C@H](C)[C@@H](CN(C)C(=O)Nc1ccc(F)cc1)O2,-17
C[C@H]1CN([C@@H](C)CO)C(=O)c2cc(NS(=O)(=O)c3cccs3)ccc2O[C@H]1CN(C)Cc1ccc(C(F)(F)F)cc1,14
COc1ccc([N+](=O)[O-])cc1NC(=O)CCC1COc2ccccc2O1 (centres undefined),1
C[C@@H]1CN([C@H](C)CO)C(=O)Cc2cc(NS(=O)(=O)c3ccccc3)ccc2O[C@H]1CN(C)Cc1ccc(C(=O)O)cc1,10
CC(C)NC(=O)N(C)C[C@@H]1OCCCC[C@@H](C)Oc2ccc(NS(=O)(=O)c3cccs3)cc2C(=O)N([C@H](C)CO)C[C@@H]1C,18
Cc1sc2ncn(CC(=O)Nc3cccc(C(F)(F)F)c3)c(=O)c2c1-c1ccc(Cl)cc1,46
Cc1cc(C(=O)Nc2cccc3c2O[C@@H](CN(C)S(C)(=O)=O)[C@H](C)CN([C@H](C)CO)C3=O)n(C)n1,-18
Cc1noc(C)c1NC(=O)Nc1ccc2c(c1)CC(=O)N([C@@H](C)CO)C[C@H](C)[C@H](CN(C)C(=O)Nc1ccc(F)cc1)O2,2
O=C(O)/C=C/c1ccccc1O[C@@H]1O[C@H](CO)[C@@H](O)[C@H](O)[C@H]1O,9

# Reprinted at random: 2 entries already listed.
SMILES,NOMO-1 viab
Cc1cc(C(=O)Nc2cccc3c2O[C@@H](CN(C)S(C)(=O)=O)[C@H](C)CN([C@H](C)CO)C3=O)n(C)n1,-18
Cc1cc(C)cc(-n2c(C)cc(/C=C3\SC(=O)NC3=O)c2C)c1,59

# Gathered by group, the compounds so far with bromine.
SMILES,NOMO-1 viab
Cc1nc(SCC(=O)Nc2ccc(Br)cc2)n[nH]1,20
Cc1ccc(NC(=O)CSCc2n[nH]c(=O)[nH]2)c(Br)c1,2
Cc1cc(N(CC(=O)Nc2ccc(F)cc2)S(C)(=O)=O)ccc1Br,37
